# Source: PubChem BioAssay (National Center for Advancing Translational Sciences (NCATS))
# CtBP-E1A blk: qHTS Assay for Inhibitors of the CtBP/E1A Interaction. hit rate 0.49% among 340,000. AID 651724, 2012. CtBP / adenovirus E1A interaction (AlphaScreen). AlphaScreen GST-E1A/His-CtBP binding, 1536-well; hits give low values; control for the full effect not named in the record. activity change, % (concentration not given with the values); in the data active means activity change below about -65%; inconclusive means about -30% to -65%; inactive means above about -30%; further: on the % scale 0 is the no-effect control and ±100 the full control effect
#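 Steps: dispense buffer (Tris pH 8.0, NaCl 300 mM, TCEP 1 mM, BSA, Tween 20); add 5X protein mix (GST-E1A, His-CtBP, 125 nM each); pin 23 nL compound; 2 h at 37 °C, dark; add 5X beads (50 ug/mL); 1 h; read.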
# TRPV1 PAM: HTS Assay for Compounds that Act as Potentiators of the Vanilloid Receptor 1; Transient receptor potential cation channel subfamily V member 1 (Homo sapiens), Q8NER1; TRPV1-expressing cells, Fluo-8 calcium influx, capsaicin EC20 potentiation; host cell line not named in the record; control for the full effect not named in the record; potentiation, % at 8.33 µM; hit rate 0.02% among 320,000; AID 540277, 2011; active means potentiation above 80%; inconclusive means 30% to 80%; inactive means below 30%; further: 0% is about no effect
#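 Fluo-8 calcium influx in TRPV1-expressing cells, kinetic read (ex 480/em 520 nm). Compound added and read 3 min for agonist activity, followed by capsaicin at EC20 final and 2 min further read for enhancement.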
# D2 ag: Beta-Arrestin HTS for Positive Allosteric Modulators of the Human D2 Dopamine Receptor: Agonists; DiscoveRx PathHunter D2 beta-arrestin, luminescence, 90 min; 100% = 57 uM dopamine signal; D(2) dopamine receptor (Homo sapiens), P14416; AID 624465, 2012; activation, % (test concentration not listed); hit rate 0.084% among 360,000; in the data active = activation above about 40%; inconclusive = about 15% to 40%; inactive = below about 15%; further: compound concentration not given in the record; the text of the record calls up to 30% inactive
# Target sequence (P14416 whole entry, looked up): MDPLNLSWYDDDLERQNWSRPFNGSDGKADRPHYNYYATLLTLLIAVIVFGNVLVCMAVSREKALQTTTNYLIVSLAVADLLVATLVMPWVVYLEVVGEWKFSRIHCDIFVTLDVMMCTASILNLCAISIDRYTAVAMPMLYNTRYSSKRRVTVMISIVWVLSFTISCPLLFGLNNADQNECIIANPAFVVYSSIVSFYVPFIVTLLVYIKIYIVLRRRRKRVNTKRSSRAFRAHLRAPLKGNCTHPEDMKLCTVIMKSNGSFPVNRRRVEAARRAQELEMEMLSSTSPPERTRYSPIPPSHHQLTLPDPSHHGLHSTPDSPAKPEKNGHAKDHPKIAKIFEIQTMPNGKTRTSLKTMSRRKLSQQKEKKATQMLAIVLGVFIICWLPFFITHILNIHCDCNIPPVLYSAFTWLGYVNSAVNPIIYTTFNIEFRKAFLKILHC
#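 Agonist mode: compounds alone added to overnight-plated D2 PathHunter cells for 90 min at 37 C, with 57 uM final dopamine (EC100) defining full response. Beta-arrestin recruitment detected by chemiluminescent reagent, read after 1 h at ambient temperature.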
# Six1-Eya2 inh: qHTS Assay for Inhibitors of the Six1/Eya2 Interaction. Homeobox protein SIX1 (Homo sapiens) + Protein phosphatase EYA2 (Homo sapiens), …. AlphaScreen GST-Six1/His-Eya2 binding, biochemical; hits give low values; control for the full effect not named in the record. activity change, % (no concentration beside the values). hit rate 0.56% among 360,000. AID 651725, 2012; in the data active = activity change below about -65%; inconclusive = about -30% to -65%; inactive = above about -30%; further: on the % scale 0 is the no-effect control and ±100 the full control effect; compound concentration not given in the record
#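 AlphaScreen luminescence read after one hour at 37 °C in darkness. Pin-transferred compounds met GST-Six1 and His-Eya2 protein (5X stock 250 nM/500 nM) plus glutathione donor and Ni-chelate acceptor beads (5X, 50 ug/mL).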
# PINK1 expr mod: A Quantitative High throughput Screen to Identify Chemical Modulators of PINK1 Expression. PINK1 immunofluorescence, high-content cytometry, 24 h. hit rate 0.2% among 410,000. Potency, µM (doses to about 76.6 µM), without a hit: at the top dose activation (PINK1 increase), most hits filed as activators. AID 624263, 2012; active = well fitted activation curve with a large enough effect; inconclusive = small, poorly fitted or top-dose-only effect; inactive = flat fitted curve, though single readings scatter; cell line not stated here;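 further: potency means the concentration at half of the fitted maximal effect; % of control where 0% means no effect; nearly all actives have a fitted effect of over 65% in size; a mitochondrial uncoupler was the plate control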
#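 Stable cell line treated 24 h with compounds at 5 concentrations (CCCP controls), then fixed and immunostained for PINK1 plus nuclear and cell stains; PINK1 immunofluorescence quantified by laser-scanning microplate cytometry.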
# D2 potentiator: Beta-Arrestin HTS for Positive Allosteric Modulators of the Human D2 Dopamine Receptor: Potentiators. D(2) dopamine receptor (Homo sapiens), P14416. DiscoveRx D2 beta-arrestin cells, luminescence, 90 min; 100% = 57 uM dopamine signal. potentiation, % (test concentration not listed). hit rate 0.23% among 360,000. AID 624464, 2012; active = potentiation of 50% or more; inconclusive = 30% to 50%; inactive = 30% or less;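 further: compound concentration not given in the record; tested on top of an EC20 dose of dopamine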
#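 PathHunter beta-arrestin assay in DiscoveRx D2 cells. Compounds were added with an EC20 of dopamine (50 nM final) for 90 min at 37 deg C. Luminescence was read 1 h after detection reagent, with 57 uM dopamine as the EC100 control.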
# Sfp inh: qHTS Assay for Inhibitors of Bacillus subtilis Sfp phosphopantetheinyl transferase (PPTase); Biochemical Sfp PPTase activity, qHTS; Potency, µM, without a hit: max response, negative = inhibition, actives largely listed as inhibitors; hit rate 3.5% among 310,000; AID 1490, 2009; active means well fitted inhibition curve with a large enough effect; inconclusive means small, poorly fitted or top-dose-only effect, or another doubt; inactive means no such curve, though single readings can be large or run the other way;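 further: the enzyme is Sfp with the accession as filed and its product quenches rhodamine fluorescence; potency means the concentration at half of the fitted maximal effect; 0% = enzyme reaction without inhibitor and -100% = no enzyme wells; top concentration of the series not given in the record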
#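 After 15 min at room temperature with compound, 15 nM Sfp received 5 uM rhodamine-CoA plus 12.5 uM BHQ-2-ybbR (50 mM Hepes pH 7.6, 10 mM MgCl2). Rate came from the fluorescence difference over 30 min, ex 525/em 598 nm.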
# The depositor's hits bear a star; u = inconclusive; x = no result given; & = joins results of further samples; [ ] = remark or other dose.
# Every second line gives: CtBP-E1A blk, TRPV1 PAM, D2 ag, Six1-Eya2 inh, PINK1 expr mod, D2 potentiator, Sfp inh
Cc1cc(=O)oc2c1c(C)nn2-c1ccc(Br)cc1
  -14, -8, -1.6, 5, 1.0%, 0, 1%
CCc1ccc(OCC(=O)OCC(=O)NC2CCCC(C)C2C)cc1 (stereo not drawn)
  10, x, 2.1, 9, 15%, -1, x
Cc1cc(=O)oc2cc(OCC(=O)N3CCN(c4ccccc4)CC3)ccc12
  -3, 17, -0.7, 0, -0.5%, 1, x
O=C1CC(c2ccccc2)=NN1c1ccccc1
  -16, x, -0.9, -10, 12%, -9, x
COc1ccc(CN2CCN(c3cc(C)nc4c5c(C)cc(C)nc5nn34)CC2)cc1F
  -24, -2, -3.5, -5, 17%, -13, 26%
Cn1cc(CNC(=O)C2c3ccccc3Oc3ccccc32)cn1
  6, x, -0.3, -3, 0.2%, 3, -5%
Cc1cc(N)n(-c2ccc(Cl)cc2)n1
  5, -8, -4.7, 1, -1.1%, -2, 17%
O=[N+]([O-])c1ccccc1O[C@@H]1O[C@H](CO)[C@H](O)[C@H](O)[C@H]1O
  1, -1, -5.0, 2, 0.5%, -16, 10%
COC(=O)c1ccccc1S(=O)(=O)NNC(=O)c1nn(C)c(=O)c2ccccc12
  -2, x, -3.7, -21, 0.4%, 3, x
CCOC(=O)c1c(CSc2ccccc2)n(C)c2ccc(O)c(CN3CCOCC3)c12
  -14, -12, -2.8, -2, 0.8%, -5, -37%

# Some of the entries above, set out differently:
canonical_smiles: O=C1CC(c2ccccc2)=NN1c1ccccc1
  CtBP-E1A blk: -16 | TRPV1 PAM: x | D2 ag: -0.9 | Six1-Eya2 inh: -10 | PINK1 expr mod: 12% | D2 potentiator: -9 | Sfp inh: x
canonical_smiles: COc1ccc(CN2CCN(c3cc(C)nc4c5c(C)cc(C)nc5nn34)CC2)cc1F
  CtBP-E1A blk: -24 | TRPV1 PAM: -2 | D2 ag: -3.5 | Six1-Eya2 inh: -5 | PINK1 expr mod: 17% | D2 potentiator: -13 | Sfp inh: 26%
canonical_smiles: Cn1cc(CNC(=O)C2c3ccccc3Oc3ccccc32)cn1
  CtBP-E1A blk: 6 | TRPV1 PAM: x | D2 ag: -0.3 | Six1-Eya2 inh: -3 | PINK1 expr mod: 0.2% | D2 potentiator: 3 | Sfp inh: -5%
canonical_smiles: Cc1cc(N)n(-c2ccc(Cl)cc2)n1
  CtBP-E1A blk: 5 | TRPV1 PAM: -8 | D2 ag: -4.7 | Six1-Eya2 inh: 1 | PINK1 expr mod: -1.1% | D2 potentiator: -2 | Sfp inh: 17%

# Next section:
# Every second line gives: CtBP-E1A blk, TRPV1 PAM, D2 ag, Six1-Eya2 inh, PINK1 expr mod, D2 potentiator, Sfp inh
CC(=O)NCCc1ccc(C(=O)COC(=O)c2cccs2)cc1
  5, x, -3.8, 7, 2.5%, -1, x
O=C(c1cccc(S(=O)(=O)N2CCN(c3ccc(F)cc3)CC2)c1)N1CCCCCCC1
  9, 0, -1.0, -9, 0.4%, -10, x
CCOC(=O)N1CCN(C(=O)c2oc3ccc(S(=O)(=O)N4CCCCC4)cc3c2C)CC1
  1, 6, 1.7, 0, u, 17, 12%
COc1ccc(NC(C)=O)cc1S(=O)(=O)NC(Cc1ccccc1)C(=O)NC(C)c1ccccn1 (stereo not drawn)
  -3, x, -4.1, 8, -0.6%, -18, x
O=C(CN1C(=O)c2ccccc2S1(=O)=O)Nc1ccccn1
  9, 11, -3.4, -2, 2.4%, -5, x
O=C(c1ccc2c(c1)N(Cc1ccccc1F)C(=O)c1ccccc1S2)N1CCOCC1
  x, 9, -2.7, 0, -0.3%, -9, -6%
CN(C)CCn1c2c(c(SCC(=O)Nc3cccc4ccccc34)nc1=O)CCC2
  -1, 3, -2.7, -1, 0.2%, 0, x
COc1ccc(C2CC(c3cc(Br)ccc3F)n3nnnc3N2)cc1 (stereo not drawn)
  -1, 10, 0.1, -6, 0.6%, 19, u
CCNC(=O)CSc1nnc(-c2cccc(S(=O)(=O)N(CC)CC)c2)n1CCc1ccccc1
  -2, -12, 0.9, -1, -6.7%[38.3 µM], 0, 8%
O=C(Nc1nsc(-c2ccccc2)n1)c1ccc(F)cc1
  -20, 4, -19, 0, -1.2%, -8, 23%
O=C(O)c1cccc(NC(=O)c2ccc(S(=O)(=O)c3ccccc3)cc2)c1
  0, -13, -0.4, -8, 9.1%, -3, 8%
Cc1ccc(S(=O)(=O)N(C)CC(=O)O/N=C(\N)c2cccc([N+](=O)[O-])c2)cc1
  -19, -3, -1.2, -20, 9.2%[38.3 µM], 9, 4%
CC(C)C1N(c2ccccc2)C(N)=C(C#N)C1(C#N)C#N (stereo not drawn)
  -4, 3, -0.8, -11, -0.1%, -3, 6%
CCC1(CC)NC(=O)N(CC(=O)OCC(=O)Nc2cc(C)ccc2C)C1=O
  0, 1, -2.4, 27, -0.6%, 6, 2%
Cc1cc(C)c2c(c1)-c1c(ssc1=S)C(C)(C)N2C(=O)CN1C(=O)c2ccccc2C1=O
  -8, 4, -0.5, u, 5.0%, -3, -14%
O=[N+]([O-])c1ccccc1S(=O)(=O)Nc1ccc(-c2ccc(N3CCCC3)nn2)cc1
  -1, 7, 7.1, -24, 0.1%, 7, x
Cc1cccc(NC(=O)c2ccc3nc(N4CCOCC4)sc3c2)c1C
  -15, 23, -4.9, 2, 2.9%, -4, 8%
COc1ccc(NS(=O)(=O)c2ccc3[nH]c(=O)[nH]c3c2)cc1
  3, u, 5.1, -1, 1.0%, 1, -1%
COc1ccc(Cl)cc1-c1cc(C(=O)Nc2ccc(C)c(NS(C)(=O)=O)c2)[nH]n1
  -18, x, -2.1, 0, 1.1%, -12, x
C=C(C)C1CC=C(CN2CCN(Cc3ccccc3)CC2)CC1 (stereo not drawn)
  x, 0, -3.0, 8, 11%, -79, -7%
CN(c1ccccc1)S(=O)(=O)c1cccc(C(=O)NC2CC(C)(C)NC(C)(C)C2)c1
  x, 0, -2.3, 16, 0.6%, -18, x
C=CCn1c(=NC(=O)CN2C(=O)CCC2=O)sc2cccc(OC)c21
  3, 6, -3.2, -5, 0.0%, -9, 17%
CCC1CCc2c(c3ccccc3[nH]c2=O)O1 (stereo not drawn)
  -18, -7, -5.2, 3, -1.3%, 12, 17%
Cc1ccccc1/[N+]([O-])=C/c1ccncc1
  1, 5, 0.5, 2, -1.0%, -14, -7%
COCCNc1nc(-c2cc(-c3ccccc3)on2)cc(C(C)C)n1
  23, 10, -8.2, 16, 15%, -8, -6%
COc1ccc(CN2CCN(Cc3nc4ccccc4s3)CC2CCO)c(C)c1C (stereo not drawn)
  0, 10, -2.3, -8, 9.4%, -2, 1%
CCC(O)CC(C(=O)NNc1ccccc1)C(=O)NNc1ccccc1 (stereo not drawn)
  4, 0, -7.7, 11, 3.3%, -9, 5%
Cc1c(NC(=O)c2cnn3c2NC(c2ccco2)CC3C(F)(F)F)c(=O)n(-c2ccccc2)n1C (stereo not drawn)
  -4, 11, -0.5, 11, 1.2%, 3, -19%
Cc1ccc(S(=O)(=O)N2CCN(C(C)C)CC2)cc1
  0, -3, -2.3, -6, 0.0%, -2, 13%
COc1ccc(C(CNC(=O)c2cc(SC)ccc2Cl)N(C)C)cc1 (stereo not drawn)
  4, u, -4.5, -1, -0.5%, -30, 14%
O=C(CCNS(=O)(=O)c1ccc(Cl)cc1)N1CCN(c2ccccn2)CC1
  0, -2, -3.3, 7, -2.0%, -5, 13%
CCCc1ccc(NC(=O)C2CCCN(c3cnccn3)C2)cc1 (stereo not drawn)
  x, 14, -2.1, -2, 0.7%&1.0%, -12, 4%
O=c1nc2ccc(Cl)cn2c2ccc(S(=O)(=O)N3CCCCC3)cc12
  -6, -16, -4.2, -11, 11%, -3, -5%
O=C(CSc1nnc(COc2ccc(Cl)cc2)o1)N1CCCCC1
  2, -9, -1.6, 2, 1.1%, 3, -3%
CCCn1c(NCc2cccc(OC)c2O)nc2ccccc21
  -5, 20, -0.4, 1, 0.1%, -11, 13%
Fc1ccc(NC2=NCCCCC2)cc1
  11, -5, -1.3, -15, 0.6%, -1, 16%
CC(CC(=O)Nc1ccc2c(c1)OCO2)c1ccccc1 (stereo not drawn)
  -3, -26, -0.4, -7, 1.5%, -10, 19%
COc1cccc(N(CC(=O)NCCSCc2ccc(C)cc2)S(C)(=O)=O)c1
  x, -27, -1.8, 7, -1.4%, -17, 14%
COc1ccc(CCN=C(N)NS(=O)(=O)c2ccc(F)cc2)cc1OC
  -1, -3, -3.5, -1, -2.4%, 4, 17%
CC1(C)CC(=O)C2=C(C1)Nc1ccccc1NC2c1cccnc1 (stereo not drawn)
  10, 4, -7.4, -6, -0.4%, -9, 6%
COc1ccc(-n2ncc3c2CC(C)(C)CC3NC(=O)c2cn[nH]c2)cc1 (stereo not drawn)
  -4, 1, -1.3, 4, 0.6%, -1, 22%
C[C@@H]1CN(C(=O)c2nc3ccc(Cl)cn3c2CN(C)CCc2cnn(C)c2)C[C@H](C)O1
  -2, -4, -3.2, 0, -0.1%, -6, 14%
COc1ccc(OC)c(C(c2c(C)[nH][nH]c2=O)c2c(C)[nH][nH]c2=O)c1
  -8, 6, 0.2, 0, -1.2%, -4, 5%
O=C(Nc1ccon1)c1cccc(S(=O)(=O)N2CCCCC2)c1
  13, -4, -3.7, -16, 1.1%, -6, 17%
C=CCNc1nnc(Sc2ncccc2[N+](=O)[O-])s1
  -11, 1, u, 0, 7.3%, 14, -2%
S=C(NC1CCCCCC1)NC1CCCC1
  -5, -5, -3.7, 3, 2.1%, -4, 13%
CCCCNc1ccc2nsnc2c1[N+](=O)[O-]
  -1, -5, -5.3, -13, 3.0%, -24, 1%
